# Assay outcomes: PubChem BioAssay, Broad Institute
# Tg IFNy HTS = blocks Toxoplasma gondii growth in the presence of IFN-gamma. Toxoplasma gondii growth in IFN-gamma-treated host cells; active compounds read low; reference of the scale not given here. activity change, negative = inhibition, %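 (about 20 µM by stock and volumes)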. 69,000 compounds, 3.8% hits;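 active = below -70%; inconclusive = fit judged invalid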;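 note: host cells are HeLa cells infected with Toxoplasma gondii; parasite growth read as luciferase light; one replicate is shown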
# Active calls of the source: *; i = inactive; u = inconclusive.
# The opening six compounds (preview)
SMILES,Tg IFNy HTS
COCC1(NC(=O)c2ccccc2C2CCNC2)CCCC1 (stereo not drawn),-43.3
COc1ccc(C2=Nc3cc(C(=O)NCCN4CCOCC4)ccc3CN2C(C)C)cc1,27.8
c1ccc(CSc2nnc(-c3ccco3)n2-c2ccccc2)cc1,2.6
CCc1nn(C)c(C(=O)NCCNc2nc(-c3ccc(OC)cc3)cc3ncccc23)c1C,-18.0
O=C(Cc1n[nH]c(=O)c2ccccc12)N1CC[C@@H](c2ccccc2)[C@H](O)C1,-1.4
COc1ccc2c(c1)NC1(CCN(C(=O)Nc3ccc(OC)cc3OC)CC1)c1cccn1-2,276.9

# The whole of this part, repeating the preview:
SMILES,Tg IFNy HTS
COCC1(NC(=O)c2ccccc2C2CCNC2)CCCC1 (stereo not drawn),-43.3
COc1ccc(C2=Nc3cc(C(=O)NCCN4CCOCC4)ccc3CN2C(C)C)cc1,27.8
c1ccc(CSc2nnc(-c3ccco3)n2-c2ccccc2)cc1,2.6
CCc1nn(C)c(C(=O)NCCNc2nc(-c3ccc(OC)cc3)cc3ncccc23)c1C,-18.0
O=C(Cc1n[nH]c(=O)c2ccccc12)N1CC[C@@H](c2ccccc2)[C@H](O)C1,-1.4
COc1ccc2c(c1)NC1(CCN(C(=O)Nc3ccc(OC)cc3OC)CC1)c1cccn1-2,276.9
CSc1nsc(SCC(=O)Nc2ccc(C)cc2)n1,98.9
Cc1oc(-c2ccccc2)nc1Cc1noc(Cc2c[nH]c3ccccc23)n1,5.8
O=S(=O)(CCn1cc(CCc2ccccc2)nn1)N1CCCC1,8.4
C/C=C(\C)c1c(-c2ccccc2)ncn1Cc1cccnc1,5.8
CN(C)c1cccc(C(=O)N2CCc3c([nH]c4ccccc34)C2c2ccccc2)c1 (stereo not drawn),-111.3*
Cc1cc2n(n1)CCCN(C(=O)C1CC3(CCNCC3)CN1)C2 (stereo not drawn),-33.0
COc1cncc(C(=O)Nc2ccc(C)cc2Cl)c1,4.4
O=C1NC2(CCN(Cc3ccco3)CC2)CC1c1cccnc1 (stereo not drawn),-3.0
Cc1nc(-c2cccc(-c3cccc4ccnn34)c2)no1,8.0
C=CCOC1C2CCC1N(C(=O)c1cccc3c1OCCO3)CCO2 (stereo not drawn),-6.9
CN(C)c1nc(-c2ccccc2)nc2c1CCN(C(=O)C1CCCO1)C2 (stereo not drawn),-29.5
CCc1nc(OCC(=O)NCc2ccc(OC)cc2)c2ccccc2n1,12.3
Cc1nc(OCC(=O)Nc2ccc3c(c2)OCO3)c2ccccc2n1,1.2
CCN1[C@@H]2c3ccc(-c4ccc(F)cc4)c(=O)n3C[C@H]1[C@H](CO)[C@H]2C(=O)Nc1nccs1,-2.7
C/C=N/N(C)C=O,-4.1
Cc1nc(C(=O)O)c(-c2ccccc2)s1,32.7
CN1CCCC2(CCN(C(=O)c3cnc(Nc4ccccc4)nc3)C2)C1=O (stereo not drawn),56.8
COC(=O)C1CC23C=CNC4CCC5(c6ccccc6NC15C2C)C43 (stereo not drawn),-85.5*
O=C(CCN1CCOCC1)c1cc2ccc(-c3cccc(Cl)c3)cn2c1-c1cocn1,-1.4
# Going on with the list.
SMILES,Tg IFNy HTS
CN(C)c1nc2c(c(=O)[nH]1)CCN(C(=O)C1(c3ccc(Cl)cc3)CCC1)C2,-11.9
COc1cccc(OC)c1CNC(=O)c1ccc(C2CCNC2)cc1 (stereo not drawn),-10.3
COc1ccc(N(Cc2nc(-c3ccccc3OC)oc2C)S(=O)(=O)c2ccc(OC)cc2)cc1,-3.4
NS(=O)(=O)c1ccc2c(c1)CCN2C(=O)Cc1csc(-c2ccccc2)n1,-3.6
CC(C)C#Cc1ccc([C@@H]2[C@@H](CO)N3C(=O)CN(C(=O)NC4CCCC4)C[C@@H]23)cc1,-0.1
CSc1nc(NC(C)=O)nc(C)c1Br,4.6
COc1cccc(CC(=O)NCC2COc3ccccc3O2)c1OC (stereo not drawn),22.7
CN1C(=O)c2cc(NC(=O)Cc3cccs3)ccc2OC[C@@H]2O[C@@H](CC(=O)NCCCN3CCOCC3)CC[C@H]21,-30.2
Cc1ccc(CNS(=O)(=O)c2cc3c4c(c2)CCN4C(=O)CC3)cc1,20.8
Cc1ccc(OC2(C(=O)NCc3cccc(C)c3C)CCNCC2)cc1,-47.5
Cn1cnc2ccc(NC(=O)CC3CCN(S(=O)(=O)c4cccc(F)c4)CC3)cc21,-39.9
Cc1ccc2cc(CN(C(=O)NCc3ccccc3)C3CCCCC3)c(=O)[nH]c2c1C,-48.2
COc1ccc2c3c(n(C)c2c1)[C@@H](CO)N(S(=O)(=O)c1ccc(C)cc1)CC31CCN(Cc2cccnc2)CC1,22.3
O=C(O)CCC(=O)N1C2CCC1CN(Cc1cccs1)C2,-1.9
O=S(=O)(N1CCOCC1)N1CCC(c2ccn[nH]2)C1 (stereo not drawn),-0.8
CCCCNC(=O)N1CCC2(CC1)OC(C(=O)NCc1ccccn1)Cn1ccnc12 (stereo not drawn),329.7
O=C(NCc1cccnc1)C1CCN(Cc2cc3ccccc3n2Cc2ccccc2Cl)CC1,-20.8
CN(C/C=C/c1ccccc1)CC1(CO)CC1,2.7
O=C1CCCN1[C@@H]1CN(CCc2ccccc2)[C@H]2CCCO[C@@H]12,3.5
Cc1cccc(CN2CCCC3(CCN(S(=O)(=O)c4cccc(F)c4)C3)C2)n1 (stereo not drawn),-0.5
CCCn1nccc1C(=O)Nc1cc2c(C)cc(=O)oc2cc1C,-17.1
CCc1ccc(CN2CCN(c3nc(N(C)C)nc(C)c3C)CC2)nc1,5.8
COc1cc(CCC(=O)N2CCC3(CC2)CN(C(C)=O)c2ccccc2N3)on1,-0.9
CC(=O)Nc1ccc(S(=O)(=O)Nc2cncc(C(=O)NCc3ccc(C)cc3)c2)cc1,23.1
COc1ccccc1CC(=O)N1CCC(c2nc(C(=O)N(C)C)c(C)o2)CC1,-39.1
# (listing goes on)
SMILES,Tg IFNy HTS
Cc1cc2n(n1)CCCN(C(=O)CC1COCCN1)C2 (stereo not drawn),-7.9
Cc1nn(CC(C)C)c2c1C(c1cnn3cccnc13)CC(=O)N2 (stereo not drawn),-4.1
Cc1ccccc1-n1c(CCc2ccccc2O)n[nH]c1=O,3.6
COc1cc(F)ccc1-c1c(-c2ccccc2)ncn1CCS(C)(=O)=O,-1.1
COc1ccc(NC(=O)N2CCCC(O)(CN(C)C)CC2)cc1Cl (stereo not drawn),-0.3
COc1ccc2c(c1)CCC1C2CC[C@@]2(C)C1CC[C@@H]2O (stereo partly drawn),-45.6
O=c1c(Cl)c(Oc2ccccc2)cnn1-c1ccccc1,71.6
Cc1cccc(NC(=O)c2nnn(Cc3nc(-c4ccc(Cl)cc4)oc3C)c2C)c1C,-3.8
CN(C)S(=O)(=O)c1ccc2c(c1)cc(C(=O)N1CCCC1)n2Cc1ccncc1,25.2
O=C(CCc1ccc(-c2ccccc2)o1)N1CCn2c(CO)nnc2C1,-6.7
CC=Cc1ccc2n(c1=O)C[C@H]1[C@H](CO)[C@@H](C(=O)NCc3cccc(OC)c3)N[C@@H]21 (mixture of isomers),-4.5
Cc1cccc(-c2nc3cnccn3c2NCCC(=O)N2CCCC(C)C2)c1 (stereo not drawn),38.0
Cc1ccccc1NC(=O)CN1CCC2(CC1)N=C(c1ccc(Cl)cc1)C(=O)N2,49.7
CN(C)c1ncnc2c1CCN(S(=O)(=O)c1ccc(Cl)s1)C2,-14.0
O=C(CN1CCN(c2nc3cc(Cl)ccc3s2)CC1)c1cc(-c2ccccc2)no1,8.1
O=C(O)CN1CCC2(CC1)CC(=O)N(CC1CC1)c1ccccc12,-1.0
CC(=O)N1CCO[C@H]2CN(S(=O)(=O)c3ccc(C)cc3)CC[C@@H]2C1,5.3
CCOc1ccc(CC(=O)N2CCC(c3nn(C)c(=O)n3CC)CC2)cc1,4.3
N#CCc1nn(-c2ccccc2)c(-n2cccc2)c1C#N,25.5
COc1ccc(C)cc1N1CC(C(=O)N2CCC3(CC2)NC(=O)N(C)C3=O)CC1=O (stereo not drawn),17.5
Cc1ccc(S(=O)(=O)N(C)C[C@@H]2OCCCC[C@H](C)Oc3ccc(NC(=O)c4ccncc4)cc3C(=O)N([C@H](C)CO)C[C@H]2C)cc1,-35.6
CCOc1ccc(-c2nc(Cc3noc(-c4cccnc4)n3)c(C)o2)cc1,55.1
CN(Cc1ccc(-c2ccccc2)cc1)Cc1cc(C2CCNCC2)nn1C,-31.6
Cc1sc2nc3n(c(=O)c2c1C)CCCCC3,15.3
CCc1ccccc1NC(=O)C(=O)NCCc1csc(-c2ccc(Cl)cc2)n1,-10.4
# Further structures follow.
SMILES,Tg IFNy HTS
CCOC(=O)c1nc(N2CCC3(CC2)OCCO3)c2ccccc2n1,71.6
c1cncc(COCC2CNCc3nccn3C2)c1 (stereo not drawn),-81.8*
O=C(Cc1cccs1)N1CCC2(CC1)Nc1cc(F)ccc1-n1cccc12,60.8
COc1cccc(CN2CCC3(CC(NS(=O)(=O)C4CC4)C3)C2)c1 (stereo not drawn),-3.9
Cc1cccc(C(=O)N2CCc3c([nH]c4ccccc34)C2c2cccc(C)c2)c1 (stereo not drawn),i
Cc1cc(C)cc(NC(=O)CC(=O)NCC2CC(=O)N(C3CC3)C2)c1 (stereo not drawn),1.8
Cc1nc(S(=O)(=O)NC2CCS(=O)(=O)C2)cn1C (stereo not drawn),-14.4
CCN(CC)CCCNC(=O)c1ccc2ccc(N3CCN(Cc4cccnc4)CC3)n2c1,3.3
COc1cc(NC(=O)c2cncc(Br)c2)c(OC)cc1Cl,3.5
CCOC(=O)c1c(C)cc(C)n2c1nc1ccccc12,43.0
COc1cccc(NC(=O)CN2CCC3(CC2)N=C(c2ccc(F)cc2)C(=O)N3)c1,53.4
COc1cccc(-c2cccc(-c3nc(C(=O)O)cc4c3[C@@H](CCO)N(S(=O)C(C)(C)C)C4)c2)c1 (stereo partly drawn),21.4
COc1ccc(C[C@@H]2CCn3cc(nn3)COC[C@@H](C)NC2=O)cc1,14.3
COc1ccccc1N1CCN(C(=O)Cn2ncc3c(N4CCCCC4)ncnc32)CC1,-19.7
CN(C)S(=O)(=O)Nc1ccc2c(c1)NC(=O)CC2c1cc2ccccc2o1 (stereo not drawn),-51.3
Cc1ccc(CSC2=NCCCN2C2CCCCC2)cc1,-49.8
CN(CC(=O)NCC1CCCN(C)C1)Cc1ccccc1F (stereo not drawn),-3.4
CN(C)c1ccc2cc(C(=O)N3CCC(CCN4CCOCC4)CC3)[nH]c2c1,-6.1
Cc1cc(C)n(-c2ncnc3sc(-c4ccccc4)cc23)n1,-94.4*
CCCN1CCN(C(=O)Cn2nc(C)c3sc(-c4ccccc4)nc3c2=O)CC1,19.0
COC(C)c1cccc(-c2ncnc3ccsc23)c1 (stereo not drawn),3.6
Cc1nc(CCC(=O)N2CCOC(c3ccc(Cl)c(Cl)c3)C2)n[nH]1 (stereo not drawn),-7.5
CN(Cc1ccc(-n2cncn2)cc1)Cc1nc2ccccc2n1C,2.7
COCC(=O)N(C[C@H]1N[C@H](CO)[C@@H]1c1ccc(C2=CCCC2)cc1)C1CCCC1,-52.2
Cc1ccc(-c2nnc(-c3nc(NCc4cccc(F)c4)c4ccccc4n3)o2)cc1,-29.6

# Random excerpt: seven compounds from above
SMILES,Tg IFNy HTS
Cc1nc(CCC(=O)N2CCOC(c3ccc(Cl)c(Cl)c3)C2)n[nH]1 (stereo not drawn),-7.5
Cc1cc(C)n(-c2ncnc3sc(-c4ccccc4)cc23)n1,-94.4*
Cc1cccc(C(=O)N2CCc3c([nH]c4ccccc34)C2c2cccc(C)c2)c1 (stereo not drawn),i
COc1cccc(NC(=O)CN2CCC3(CC2)N=C(c2ccc(F)cc2)C(=O)N3)c1,53.4
Cc1nc(S(=O)(=O)NC2CCS(=O)(=O)C2)cn1C (stereo not drawn),-14.4
O=C(Cc1cccs1)N1CCC2(CC1)Nc1cc(F)ccc1-n1cccc12,60.8
CCOC(=O)c1c(C)cc(C)n2c1nc1ccccc12,43.0

# (cont.)
SMILES,Tg IFNy HTS
CCCN(C)C[C@@H]1Oc2cc(/C=C/c3ccccc3)ccc2S(=O)(=O)N([C@@H](C)CO)C[C@@H]1C,u
COc1ccc(-c2nc(Nc3ccc(F)cc3F)c3ccccc3n2)cc1,-16.2
c1ccc(COCCN2CCCN3CCC[C@H]3C2)cc1,4.7
COc1ccc(NC(=O)c2nc3c(n2C)CCN(C(=O)C2CC2)C3)cc1,-15.9
Cc1[nH]cnc1-c1nccn1CCc1cnn(-c2ccccc2)c1,6.8
Cc1ccc2c(C)c(C(=O)N3CCCC4(CC3)CNC(=O)O4)oc2c1 (stereo not drawn),0.0
CN(CCn1cccn1)c1nccc(N2CCC(O)CC2)n1,2.1
CCOC(=O)c1nc(C)nc(Sc2ccc(Cl)cc2)c1C,10.7
CO[C@@H]1CN(C)C(=O)c2ccc(NS(C)(=O)=O)cc2OC[C@@H](C)N(CC2CC2)C[C@H]1C,35.2
O=C(O)c1ccccc1C(=O)n1ccnc1-c1ccccc1,10.6
CCC(=O)N1[C@@H](CO)[C@@H](c2ccccc2)[C@@H]1CN(CC)C(=O)c1cccc(F)c1,-15.7
C/C=C/c1ccccc1[C@@H]1[C@H](C#N)N(C(=O)c2cccnc2)[C@H]1CO,22.7
CCCc1cnc(C)nc1-c1ccc(O)cc1,11.1
CN(C[C@H]1[C@@H](c2ccccc2)[C@@H](CO)N1C(=O)C1CCC1)C(=O)c1ccncc1,12.2
C=C1C(=O)O[C@@H]2[C@H]3C(C)=CC[C@@]34O[C@@]4(C)CC[C@@H]12,13.2
CC(Cc1ccc2c(c1)OCO2)CN1CC2C[C@@H](O)CN2C[C@H]1C (stereo partly drawn),-86.2*
CC(=O)N1CCc2cc(NC(=O)C3=NN(C4CCS(=O)(=O)C4)C(=O)CC3)ccc21 (stereo not drawn),-1.6
COc1cccc(F)c1-c1ccc2cc[nH]c(=O)c2c1,17.5
O=C(O)c1ccccc1-c1ccccc1C(=O)Nc1ccc(F)cc1,-32.8
COc1ccccc1NC(=O)c1nc(Nc2ccc(Cl)cc2)c2ccccc2n1,-45.1
COc1ccc(S(=O)(=O)Nc2cccc(-c3cn4cccc(C)c4n3)c2)cc1OC,-34.0
COc1cc(C(=O)N2CCOC(c3cc4cc(F)ccc4cn3)C2)nc(OC)n1 (stereo not drawn),-2.2
CC(=O)CC1N(C2CCCCCC2)C(=O)C2N(c3ccccc3C)C(=O)C3CC(=O)OC321 (stereo not drawn),99.2
CC(C)OCC12CCCOC1CCN(C(=O)Cc1ccsc1)C2 (stereo not drawn),3.7

# This is a subset (hit frequency here may not be typical).
